SARS PLP yeast = SARS-CoV PLP inhibition in yeast; 0.19% of 330,000 active; Potency, µM (highest dose often 32.9 µM), inactives show at the top dose activity, positive = growth rescue; AID 485353; S. cerevisiae expressing SARS-CoV PLpro, growth rescue; control for the full effect not named in the record; active means well fitted rising curve with a large enough effect; inconclusive means small, poorly fitted or top-dose-only effect; inactive means no such curve, though single readings can be large or run the other way; further: 0% is about no effect; nearly all actives have a fitted effect of over 55% in size; growth read by luminescence after 48 h
RE007 growth inh = less growth of the S. pombe RE007 Vpr strain; S. pombe RE007 Vpr strain, BacTiter-Glo ATP luminescence, 24 h; control for the full effect not named in the record; Potency, µM (doses to about 92.2 µM), for inactives: at the top dose activity change, negative = less growth; 0.21% of 360,000 active; AID 651644; active = well fitted falling curve with a large enough effect; inconclusive = small, poorly fitted or top-dose-only effect; inactive = no such curve, though single readings can be large or run the other way;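 further: on the % scale 0 is the no-effect control and ±100 the full control effect; nearly all actives have a fitted effect of over 50% in size; the assay follows cell death caused by Vpr and the record does not say whether a fall means rescue or toxicity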
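Fission yeast strain RE007, carrying one chromosomally integrated HIV-1 vpr copy, was seeded at OD 0.01 in PMG+AL medium with 23 nL pinned compound. After 24 h at 30 °C and 99% humidity, viability was read by BacTiter-Glo luminescence.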
LASV entry inh = inhibitors of Lassa virus binding or cell entry; Potency, µM (doses to about 37.9 µM), inactives show at the top dose activity change, negative = inhibition, most hits filed as inhibitors; 1.2% of 300,000 active; AID 540256; Lassa virus pseudotype entry inhibition, cell reporter; control for the full effect not named in the record; active means well fitted inhibition curve with a large enough effect; inconclusive means small, poorly fitted or top-dose-only effect, or effect the other way; inactive means flat fitted curve, though single readings scatter; tested in HEK293 cells; further: on the % scale 0 is the no-effect control and ±100 the full control effect; nearly all actives have a fitted effect of over 50% in size; luciferase read-out
Cruzain inh Det = cruzain (T. cruzi) inhibition with detergent; P25779; purified cruzain, Z-FR-AMC fluorescence, 0.01% Triton; Potency, µM, for inactives: max response, negative = inhibition, hits mostly inhibitors; 0.43% of 200,000 active;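 further: plate controls were neutral wells for no effect and buffer without enzyme for full effect; nearly all actives have a fitted effect of over 40% in size; top concentration of the series not given in the record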
Target sequence (P25779 123-467 limits assumed): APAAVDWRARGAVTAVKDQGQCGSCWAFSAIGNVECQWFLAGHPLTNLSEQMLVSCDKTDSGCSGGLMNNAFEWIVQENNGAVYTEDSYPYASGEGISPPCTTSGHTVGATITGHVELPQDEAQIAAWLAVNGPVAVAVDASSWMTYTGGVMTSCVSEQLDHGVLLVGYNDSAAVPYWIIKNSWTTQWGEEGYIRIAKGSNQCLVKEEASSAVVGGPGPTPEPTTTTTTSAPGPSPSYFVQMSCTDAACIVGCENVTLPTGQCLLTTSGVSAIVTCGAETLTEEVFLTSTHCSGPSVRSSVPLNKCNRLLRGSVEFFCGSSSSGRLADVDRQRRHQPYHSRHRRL
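Cysteine protease activity tested under reducing, mildly acidic conditions (100 mM sodium acetate pH 5.5, 5 mM DTT) plus 0.01% Triton X-100. Cruzain 1.5 nM; substrate Z-FR-AMC 2 uM; 15 min compound preincubation at room temperature.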
StopGo reporter = FMDV 2A StopGo reporter, luciferase signal; Potency, µM (titrated, usually from 57.9 µM), for the others: top-dose signal change, negative = less light; AID 1159524; 1.2% of 410,000 active; human cells with a luciferase reporter of 2A StopGo recoding; control for the full effect not named in the record; active = well fitted falling curve with a large enough effect; inconclusive = small, poorly fitted or top-dose-only effect; inactive = no such curve, though single readings can be large or run the other way; tested in HEK293T cells; further: on the % scale 0 is the no-effect control and ±100 the full control effect; nearly all actives have a fitted effect of over 45% in size; luciferase light after 4 h
NS1 inh = influenza NS1 inhibition | 0.4% of 270,000 active | AID 2326 | S. cerevisiae slowed by influenza A NS1, growth recovery by OD600 | Potency, µM (highest dose often 46.1 µM), without a hit: at the top dose activity, positive = more growth; active means well fitted rising curve with a large enough effect; inconclusive means small, poorly fitted or top-dose-only effect; inactive means no such curve, though single readings can be large or run the other way; further: nearly all actives have a fitted effect of over 50% in size
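Read-out: OD600 growth recovery of NS1-expressing budding yeast. Cells grown overnight at 30C in -URA glucose medium, washed, resuspended and diluted 1:100 in 2% galactose assay medium, pH 6.0. Same strain lacking NS1 served as positive control.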
Cruzain noTriton = inhibitors of Trypanosoma cruzi cruzain without detergent. AID 1476. Potency, µM, inactives show max response, negative = inhibition, actives largely listed as inhibitors. 2.3% of 200,000 active. purified cruzain, Z-FR-AMC fluorescence, no detergent. P25779;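 further: plate controls were enzyme without inhibitor for no effect and buffer without enzyme for full effect; nearly all actives have a fitted effect of over 40% in size; top concentration of the series not given in the record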
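Purified cruzain at 1.5 nM, pre-incubated 15 min with compound at room temperature in 100 mM sodium acetate pH 5.5, 5 mM DTT, 0.00005% Triton X-100. Reaction started with 2 uM Z-FR-AMC; AMC fluorescence increase over 60 s gives rate.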
MARV entry inh = inhibitors of Marburg virus binding or cell entry; 1.8% of 300,000 active; Potency, µM (titrated, usually from 37.8 µM), inactives show at the top dose activity change, negative = inhibition, usual class: inhibitors; Marburg virus pseudotyped entry inhibition, cell reporter; control for the full effect not named in the record; about a third of the inactives were read at about 46 µM; AID 540276; active = well fitted inhibition curve with a large enough effect; inconclusive = small, poorly fitted or top-dose-only effect, or effect the other way; inactive = flat fitted curve, though single readings scatter; tested in HEK293 cells; about a fifth of its hits are not listed in these tables; further: on the % scale 0 is the no-effect control and ±100 the full control effect; luciferase read-out
* hit, by the source's call; & = joins results of further samples; [ ] = remark or other dose. Unless noted, the call rests on the fitted dose curve; in most records, active means well fitted curve in the direction sought with a large enough effect; inconclusive means small, poorly fitted or top-dose-only effect, or another doubt; inactive means no such curve, though single readings can be large; an effect the other way counts as inactive or inconclusive. Potency means the concentration at half of the fitted maximal effect.

COc1cc(NC(=O)NC(C)(C(F)(F)F)C(F)(F)F)cc(OC)c1OC was read as SARS PLP yeast 3%, RE007 growth inh 13%, LASV entry inh -7%, Cruzain inh Det -0.8%, StopGo reporter -22%, NS1 inh 0%, Cruzain noTriton 7% and MARV entry inh 7%&7%.
For CCOc1ccccc1OCC(=O)NN=C1CCCC(=O)C1 the results were SARS PLP yeast 9%, RE007 growth inh -12%, LASV entry inh -2%, StopGo reporter 1% and MARV entry inh inconclusive.
CCOC(=O)C1(Cc2ccccc2)CCN(Cc2cn[nH]c2-c2ccccc2)CC1 was read as SARS PLP yeast 1%, RE007 growth inh -3%, StopGo reporter inconclusive and NS1 inh 1%.
Screening CCC(O)(Cc1ccccn1)Cc1ccccn1 returned RE007 growth inh -2%, LASV entry inh -2%, StopGo reporter 28% and MARV entry inh inconclusive.
Screening O=C1CS/C(=N/N=C2C3CC4CC(C3)CC2C4)N1 returned SARS PLP yeast -11%, RE007 growth inh 9%, LASV entry inh 11%, Cruzain inh Det 0.7%, StopGo reporter -7%, NS1 inh 8%, Cruzain noTriton 3% and MARV entry inh -14%.
For COCCCNC(=O)CC1C[C@H](C(=O)N2CCOCC2)[C@@]2(C)c3[nH]c4ccc(OC)cc4c3CCN2C1=O (stereo partly drawn) the results were SARS PLP yeast -10%, RE007 growth inh -16%, StopGo reporter -19% and MARV entry inh 3%.
COc1ccc(C)cc1NC(=O)NCCCCc1ccccc1 was read as SARS PLP yeast 2%, RE007 growth inh 2%, LASV entry inh -23%[46.1 µM], StopGo reporter -13%, NS1 inh -48% and MARV entry inh inconclusive.
Cc1cccc(NC(=O)c2ccc(CNS(=O)(=O)c3ccc4c(c3)C(C)(C)C(=O)N4C)cc2)c1 was read as LASV entry inh inconclusive, Cruzain inh Det -4.7%, StopGo reporter 35µM* and Cruzain noTriton 24%.
`COc1cc(C(=S)N2CCN(c3cccc(Cl)c3)CC2)ccc1O` gave SARS PLP yeast 1%, RE007 growth inh -19%, LASV entry inh inconclusive, StopGo reporter -13%, NS1 inh 5% and MARV entry inh inconclusive.
For O=C(Nc1ccc2c(c1)OCO2)C1CC(=O)N(CCc2ccccc2)C1 (stereo not drawn) the results were SARS PLP yeast 3%, RE007 growth inh -8%, LASV entry inh -3%, StopGo reporter 41%[activator] and MARV entry inh 2%[46.1 µM].
CCC(C)c1cc(S(=O)(=O)N2CCOCC2)ccc1OC (stereo not drawn) was read as SARS PLP yeast -3%, RE007 growth inh -9%, LASV entry inh inconclusive, Cruzain inh Det 1.8%, StopGo reporter -21%, NS1 inh -32%, Cruzain noTriton 2% and MARV entry inh -1%[46.1 µM].
Screening CC(C)CCNC(=O)C(c1cccs1)N(CC1CCCO1)C(=O)Cn1nnc2ccccc21 (stereo not drawn) returned SARS PLP yeast 1%, RE007 growth inh 2%, LASV entry inh -5%, Cruzain inh Det 3.6%, StopGo reporter 21%, NS1 inh -1%, Cruzain noTriton 21% and MARV entry inh -4%&-4%.
For CCCCS(=O)(=O)c1nc(-c2ccc(Br)cc2)cc(-c2ccccc2)c1C#N the results were LASV entry inh 1%[46.1 µM], Cruzain inh Det 4.1%, StopGo reporter inconclusive and Cruzain noTriton inconclusive.
Screening COc1ccc(CCNC(=O)CCCn2c(=O)c3ccccc3n(Cc3ccccc3C#N)c2=O)cc1OC returned LASV entry inh 14%[46.1 µM], Cruzain inh Det -8.0%, StopGo reporter -19%, Cruzain noTriton 1% and MARV entry inh -8%[46.1 µM].
Screening Cc1ccc(C)c(S(=O)(=O)NCc2ccncc2)c1 returned SARS PLP yeast -8%, RE007 growth inh 8%, LASV entry inh -10%, Cruzain inh Det 1.8%, StopGo reporter 15%, NS1 inh 0%, Cruzain noTriton -3% and MARV entry inh -6%.
For O=C(c1cccc(N2C(=O)C3C4C=CC(C4)C3C2=O)c1)N1CCN(c2ccc(F)cc2)CC1 (stereo not drawn) the results were SARS PLP yeast -3%, RE007 growth inh -2%, LASV entry inh inconclusive, StopGo reporter -15%, NS1 inh 15% and MARV entry inh -8%[46.1 µM].
COc1ccc(C)cc1NC(=O)C1CCN(S(=O)(=O)c2cccs2)CC1 was read as SARS PLP yeast 0%, RE007 growth inh -6%, LASV entry inh 14%, StopGo reporter -13%, NS1 inh 13% and MARV entry inh 2%[46.1 µM].
Screening COc1ccc(C2=CC(c3ccc(OC)c(OC)c3)n3nnnc3N2)c(OC)c1 (stereo not drawn) returned SARS PLP yeast 2%, RE007 growth inh -12%, LASV entry inh -6%, Cruzain inh Det -6.6%, StopGo reporter -12%, NS1 inh 15%, Cruzain noTriton inconclusive and MARV entry inh 2%.
For CC(=O)C1CCC2C3CCC4=CC(=O)CCC4(C)C3(Br)C(=O)CC12C (stereo not drawn) the results were RE007 growth inh 0%, LASV entry inh -11%, StopGo reporter -25% and MARV entry inh -9%.
Screening CC1(C)CC(=O)C2=C(C1)OC(N)=C(C#N)C2c1cc2c(cc1[N+](=O)[O-])OCO2 (stereo not drawn) returned SARS PLP yeast 3%, RE007 growth inh 4%, LASV entry inh 3%, Cruzain inh Det -7.1%, StopGo reporter -24%, NS1 inh 20%, Cruzain noTriton -8% and MARV entry inh 1%.
Screening CCCCCCCC(=O)NNC(=O)CCC(=O)O returned SARS PLP yeast 3%, RE007 growth inh 21%, LASV entry inh 14%, Cruzain inh Det 7.1%, StopGo reporter 23%, NS1 inh 12%, Cruzain noTriton 6% and MARV entry inh -4%.
O=C(Nc1ccc(N2CCOCC2)c(Cl)c1)c1ccc(S(=O)(=O)N2CCOCC2)cc1 was read as SARS PLP yeast 1%, RE007 growth inh 8%, LASV entry inh inconclusive, StopGo reporter inconclusive, NS1 inh -12% and MARV entry inh -17%[46.1 µM].
COc1cccc(/C=N/NC(=O)CCNc2n[nH]c(=O)[nH]c2=O)c1OC was read as SARS PLP yeast 1%, RE007 growth inh -11%, LASV entry inh 8%[46.1 µM], StopGo reporter -13%, NS1 inh 3% and MARV entry inh -6%[46.1 µM].
For COc1ccc(NC(=O)CCC(=O)N2CCN(S(=O)(=O)c3ccc(C)cc3)CC2)c(OC)c1 the results were SARS PLP yeast -3%, RE007 growth inh 23%, LASV entry inh 20%, StopGo reporter -12% and MARV entry inh 12%.
Screening CC(C)CCNc1nc(N2CCCC2)c2c(c1C#N)CCN(C)C2 returned SARS PLP yeast -4%, RE007 growth inh 2%, LASV entry inh inconclusive, Cruzain inh Det -4.3%, StopGo reporter 0%, NS1 inh 6%, Cruzain noTriton -1% and MARV entry inh 7.3µM*.
CC(C)Cc1nnc(NC(=O)c2ccc([N+](=O)[O-])cc2)s1 was read as SARS PLP yeast -21%, RE007 growth inh 9%, LASV entry inh 17%, Cruzain inh Det 5.8%, StopGo reporter 24%, NS1 inh 9%, Cruzain noTriton -7% and MARV entry inh 17%.
`CC(C)OCC1CO1` (stereo not drawn) gave SARS PLP yeast -2%, RE007 growth inh 14%, Cruzain inh Det 8.2%, StopGo reporter -18% and Cruzain noTriton 6%.
Screening COc1ccc(S(=O)(=O)N2CCNCC2)cc1OC returned SARS PLP yeast 1%, RE007 growth inh 6%, LASV entry inh 12%[46.1 µM], StopGo reporter 5%, NS1 inh 3% and MARV entry inh 2%[46.1 µM].
O=C(c1cc2ccccc2oc1=O)N(Cc1ccco1)Cc1cccs1 was read as SARS PLP yeast -5%, RE007 growth inh 19%, LASV entry inh 3%, Cruzain inh Det -6.2%, StopGo reporter 0%, NS1 inh -6%, Cruzain noTriton -7% and MARV entry inh inconclusive.
Screening O=C(NCc1ccccn1)C(=O)Nc1nc(C23CC4CC(CC(C4)C2)C3)cs1 returned SARS PLP yeast 20%, RE007 growth inh -1%, StopGo reporter inconclusive and NS1 inh -3%.
Cc1cccc(OC(C)C(=O)NCc2ccc(S(N)(=O)=O)cc2)c1 (stereo not drawn) was read as SARS PLP yeast -1%, RE007 growth inh 4%, LASV entry inh 1%, Cruzain inh Det -11%, StopGo reporter -20%, NS1 inh -1%, Cruzain noTriton 1% and MARV entry inh 37%.
`COc1cc(OC)cc(C(=O)NCC(=O)OCC(=O)NCc2ccco2)c1` gave SARS PLP yeast -20%, RE007 growth inh 16%, LASV entry inh -6%[46.1 µM], StopGo reporter -11% and MARV entry inh 22%.
Screening CC(=O)C1=C(c2ccc(C)c(C)c2)N(C(C)=O)n2c(nnc2-c2ccc(Cl)cc2)S1 returned LASV entry inh -2%[46.1 µM], Cruzain inh Det -0.9%, StopGo reporter -10% and Cruzain noTriton -7%.
Screening Cc1cc2oc3c(c(=O)c2cc1C)C(c1ccc(C(C)C)cc1)N(c1nc(C)c(C)s1)C3=O (stereo not drawn) returned LASV entry inh 1%[46.1 µM], Cruzain inh Det -4.1%, StopGo reporter 1%, Cruzain noTriton -3% and MARV entry inh 3%[46.1 µM].
`CCOc1ccc(N=C(NN)c2ccc3ccccc3n2)cc1` gave SARS PLP yeast -1%, RE007 growth inh -1%, LASV entry inh inconclusive, Cruzain inh Det -7.2%, StopGo reporter 8.9µM*, NS1 inh 5%, Cruzain noTriton -7% and MARV entry inh inconclusive.
CCOC(=O)Cn1c(=O)oc2cc(S(=O)(=O)Nc3cccc(C)c3)ccc21 was read as SARS PLP yeast 5%, RE007 growth inh 12%, Cruzain inh Det -5.4%, StopGo reporter -2%, NS1 inh -6% and Cruzain noTriton -2%.
`CCOc1c(Br)cc(Br)cc1/C=C1\SC(N)=NC1=O` gave SARS PLP yeast 3%, RE007 growth inh 10%, StopGo reporter -6% and NS1 inh 21%.
C=C(C)Cn1c(Sc2nnc(C)s2)nc2c1c(=O)[nH]c(=O)n2C was read as SARS PLP yeast 3%, RE007 growth inh -2%, LASV entry inh 13%, Cruzain inh Det -7.4%, StopGo reporter 1%, NS1 inh -3%, Cruzain noTriton -3% and MARV entry inh 27%.
O=C(NCc1nnc(SCC(=O)N2CCCCC2)o1)c1c(F)cccc1F was read as SARS PLP yeast 1%, RE007 growth inh -7%, LASV entry inh -9%, StopGo reporter -9%, NS1 inh -2% and MARV entry inh 17%.

Screens as filed in PubChem BioAssay.

An unsorted share of the library; any-hit rate near 4.6%.
